High-throughput results as filed in PubChem.
RecA splice inh: Mtb RecA intein splicing inhibition. P9WHJ3. cell-free RecA intein splicing, fluorescence. inhibition, %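 (about 9 µM by stock and volumes)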. 290,000 tested, 0.75% active. AID 2221; in the data active = inhibition above about 30%; inconclusive = no clear call, values can overlap the other calls;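 also: 0% = vehicle wells and 100% = reference inhibitor control wells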
Target sequence (P9WHJ3 whole entry, looked up, canonical isoform): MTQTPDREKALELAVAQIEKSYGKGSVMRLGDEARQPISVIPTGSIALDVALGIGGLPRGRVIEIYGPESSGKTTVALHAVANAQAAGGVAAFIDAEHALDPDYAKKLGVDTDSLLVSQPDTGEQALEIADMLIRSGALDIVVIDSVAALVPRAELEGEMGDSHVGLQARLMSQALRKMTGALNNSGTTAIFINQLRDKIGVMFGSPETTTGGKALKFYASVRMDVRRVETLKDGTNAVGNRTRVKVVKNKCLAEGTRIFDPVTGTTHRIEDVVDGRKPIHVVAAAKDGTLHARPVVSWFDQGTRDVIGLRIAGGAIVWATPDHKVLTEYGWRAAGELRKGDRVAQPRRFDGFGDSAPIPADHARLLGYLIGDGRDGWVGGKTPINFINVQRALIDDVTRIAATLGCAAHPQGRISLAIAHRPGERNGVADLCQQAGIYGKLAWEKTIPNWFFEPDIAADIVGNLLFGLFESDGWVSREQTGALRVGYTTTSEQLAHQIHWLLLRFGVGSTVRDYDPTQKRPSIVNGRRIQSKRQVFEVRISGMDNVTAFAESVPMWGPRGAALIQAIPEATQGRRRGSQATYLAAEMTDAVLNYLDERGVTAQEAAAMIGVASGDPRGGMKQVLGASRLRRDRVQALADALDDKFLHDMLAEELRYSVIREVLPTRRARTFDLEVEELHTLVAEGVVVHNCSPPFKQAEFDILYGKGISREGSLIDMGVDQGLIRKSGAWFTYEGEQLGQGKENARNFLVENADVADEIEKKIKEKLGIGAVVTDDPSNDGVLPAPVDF
Arbovirus anti: blocks arbovirus infection; inhibition, % at 10 µM; 200,000 tested, 0.37% active; arbovirus infection cell-based antiviral screen;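 active = inhibition from about 30%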;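 also: bluetongue infection of BSR cells; cell survival read as ATP light after 72 h; 0% = infected wells without compound and 100% = uninfected wells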
Mtb betalactam: beta-lactam sensitization of Mtb H37Rv. M. tuberculosis H37Rv growth with meropenem, percent inhibition; hits of this screen are not shown here. inhibition, % at 25 µM. 330,000 tested, 0.27% active. AID 434955;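 active = about 74% or more and at least 40 points above the plate without the antibiotic, then above 30% in a dose series; inconclusive = first-round hits that could not be retested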;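 also: growth measured after seven days incubation then overnight dye step; 0% = bacteria only wells and 100% = bacteria with antibiotic; twin plates without the antibiotic show which effects depend on it; some results filed as inactive read as strong as hits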
YopH PTP inh: blocks Yersinia enterocolitica YopH tyrosine phosphatase. AID 898. 140,000 tested, 0.16% active. fluorescence Ex485/Em525. inhibition, %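 (about 10 µM by stock and volumes)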;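 active = inhibition of 50% or more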;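 also: controls were vehicle for no effect and minimum signal wells for full effect; inactives centre near -20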
Mtb growth: M. tuberculosis H37Rv growth inhibitors, H37Rv strain (AID 1626); 220,000 tested, 0.95% active; M. tuberculosis H37Rv growth inhibition; higher % means a stronger effect; one-dose inhibition, % at 10 µM; IC50 in µM for titrated hits;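 active = confirmed in a dose series; inconclusive = inhibition above 80% but not taken into the dose series; inactive = below 80% or under 30% at every dose of the series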;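 also: bacteria incubated seven days before Alamar blue readout; 0% = bacteria only wells and 100% = bacteria with antibiotic wells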
Arbovirus anti repeat: second read-out of Arbovirus anti, no call of its own (marks repeat the call); inhibition, %; measured here: 10K subset replicate screen; many hits read low in the repeat;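 first of two repeat runs on a subset; 0% = infected and 100% = uninfected wells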
* marks the source's active call; other numbers are inactive results; u = inconclusive; x = not tested or not shown.

SMILES	RecA splice inh	Arbovirus anti	Mtb betalactam	YopH PTP inh	Mtb growth	others
Cc1ccc(OCC(=O)N(Cc2ccc(N(C)C)cc2)C2CCS(=O)(=O)C2)cc1 (configuration not stated)	0.1	0	1	-18	3%
COCCn1c(N)c(N(Cc2ccccc2)C(=O)Cc2ccccc2F)c(=O)[nH]c1=O	-3.9	5	12	x	-4%
CC(C)C(C(=O)N1CCN(C(=O)OC(C)(C)C)CC1)n1cc(-c2cn([C@@H](C)C(=O)N3CCN(C(=O)OC(C)(C)C)CC3)nn2)nn1 (some centres not stated)	-2.8	x	x	x	-2%
COc1cccc(/C=N/NC(=O)COc2cccc3cccnc23)c1O	-3.6	-24	66	x	-12%
Cc1cc(C)cc(OCC(=O)Nc2cccc(C(=O)O)c2)c1	-4.8	9	-2	-6	-5%
CN1CCN(CC(=O)N(C)c2nc(-c3ccccc3)cs2)CC1	-3.8	-15	28	-9	1%
CCN(CC)C(=O)CSc1nnnn1-c1ccc(F)c(Cl)c1	-3.5	2	-3	x	7%
CSc1nnc(Cn2c(=O)sc3ccccc32)n1-c1cccc(Cl)c1	-5.8	-4	3	-33	6%
CC(C)CC(=O)OCC(=O)Nc1ccccc1Sc1ccccc1	2.6	-3	-2	-22	6%
Cc1ccc(C)c(NC(=O)COc2coc(CN3CCc4ccccc4C3)cc2=O)c1	-0.8	x	7	x	x
Cc1cc(NC(=O)CSc2nc(C3CC3)nc3sc4c(c23)CCC(C)C4)no1 (configuration not stated)	-1.4	x	-5	4	-3%
COC(=O)c1c(NC(=O)CC2Sc3ccc(C(F)(F)F)cc3NC2=O)sc(C)c1C (configuration not stated)	-1.1	-8	0	-22	-3%
Cc1c(C(=O)NCc2cccnc2)oc2ccc(S(=O)(=O)N3CCCCCC3)cc12	-0.2	-5	-21	-25	-6%
OC1CC(c2ccco2)NC2(CCCCC2)C1 (configuration not stated)	0.7	7	2	-13	-15%	Arbovirus anti repeat=0
N#Cc1ccc(NC(=O)COC(=O)C2=COCCO2)cc1	1.6	3	83	-37	27%
CC(C)(C)OC(=O)N1CCCN(C(=O)c2ccc(Cl)cc2)CC1	0.9	x	0	x	x
O=C(CN1C(=O)NC2(CCCC2)C1=O)NNC(=O)c1ccc(F)cc1	-5.0	x	-6	x	x
Cc1ccc(OCCn2cc(/C=C3\C(=O)NN(c4ccccc4)C3=O)c3ccccc32)cc1	-1.5	-29	u	-37	1%
N#Cc1ccsc1NC(=O)CN1CCN(S(=O)(=O)c2ccc3ccccc3c2)CC1	0.0	17	2	-12	2%
COc1cccc(CNCCc2c[nH]c3ccccc23)c1OCc1ccccc1F	10	-35	97	-49	7.1µM*
CC(=O)N/C(=C/c1ccc([N+](=O)[O-])cc1)C(=O)O	x	1	-4	x	-3%
O=C(CN1C(=O)NC2(CCCCCCC2)C1=O)NC1CCCc2ccccc21 (configuration not stated)	-4.5	3	2	-9	-4%
COc1ccc2nc(SCC(=O)Nc3ccc(S(=O)(=O)Nc4nccc(C)n4)cc3)[nH]c2c1	0.1	11	1	-24	-7%
CC(C)(C)NC(=O)CSc1nnc(CN2CCCCCC2=O)n1-c1ccccn1	0.3	0	4	-22	-2%
CCOc1cc(/C=C2\C(=N)N3N=CSC3=NC2=O)ccc1OS(=O)(=O)c1ccccc1	5.2	x	u	x	x
COCCN(Cc1cc2cc(C)ccc2n2nnnc12)C(=S)Nc1ccccc1C	1.8	6	2	x	1%
c1ccc(Nc2ncnc3sc4c(c23)CCC4)cc1	x	6	-7	-30	6%
CCOC(=O)CSc1ncc(-c2ccc([N+](=O)[O-])cc2)[nH]1	-0.5	-5	-1	-14	47%
Cc1ncc(CO)c2c1OC(C)(C)OC2	x	4	4	x	-5%
O=C(CCl)N(C/C=C/c1ccccc1)c1ccc2c(c1)OCCO2	85*	-21	99	x	73%
COc1ccc(CCNC(=O)COC(=O)c2cc(OC)c(OC)cc2OC)cc1	-1.5	7	0	x	9%
Cc1ccccc1NC(=O)Nc1ccccc1Br	-2.2	-3	2	-9	-13%
COc1cccc(CC2(CO)CCCN(Cc3[nH]c4ccc(C)cc4c3C)C2)c1 (configuration not stated)	2.2	-31	95	x	8.5µM*
COc1ccc(N2CCN(Cc3cc4c(cc3O)CCC4)CC2)cc1	8.0	29	92	-15	-4%
CCn1cc(CN2CCC(n3nccc3NC(=O)c3ccccc3OC)CC2)cn1	1.7	x	-2	x	x
CC(C)(C)c1cc(NC(=O)c2ccco2)no1	-0.8	x	-10	x	x
CSc1ccc(CCNC(=O)c2ccc(CS(=O)Cc3ccccc3Cl)o2)cc1 (configuration not stated)	3.2	x	-4	x	x
CC(C)CCn1c(=S)[nH]c2ncccc2c1=O	-3.0	1	-3	-49	x
Cc1ccc(-c2[nH]c3cc(C(N)=O)ccc3c(=O)c2O)cc1	-33	x	-24	x	4%
O=S(=O)(c1ccccc1)N1CCC(O)(CN2CCN(c3ccccc3)CC2)CC1	-0.3	x	5	x	x

The final two entries of the section before open the next one:
SMILES	RecA splice inh	Arbovirus anti	Mtb betalactam	YopH PTP inh	Mtb growth	others
Cc1ccc(-c2[nH]c3cc(C(N)=O)ccc3c(=O)c2O)cc1	-33	x	-24	x	4%
O=S(=O)(c1ccccc1)N1CCC(O)(CN2CCN(c3ccccc3)CC2)CC1	-0.3	x	5	x	x
CC(C)NC(=O)C1CCCN(S(C)(=O)=O)C1 (configuration not stated)	-1.7	10	-7	-63	-11%
Cc1cc(C(=O)N2CCCC(C(=O)c3ccc4ccccc4c3)C2)nn1C (configuration not stated)	0.3	1	3	x	5%
C=CCn1c(SCC(=O)Nc2ccc3c(c2)OCO3)nnc1-c1cc(Br)ccc1O	1.0	-13	3	-16	-8%
Cc1nc(SCC(=O)Nc2c(C)n(C)n(-c3ccccc3)c2=O)nc(C)c1C	1.4	9	-7	-15	-10%
O=C(CNC1CCN(Cc2ccccc2)CC1)Nc1ccc(S(=O)(=O)N2CCCCC2)cc1	1.1	x	-4	x	-10%
CCc1ccc(C(=O)N2CCN(c3ccc(NC(=O)c4cccnc4)cc3)CC2)cc1	-0.2	x	4	x	x
Cc1ccc(S(=O)(=O)n2[nH]c(=O)c(CCO)c2C)cc1	-1.0	-3	-8	x	2%
CN1CCN(CCC(=O)Nc2ccc(F)c(F)c2)CC1	1.4	0	3	-12	-10%
O=C(NC(=S)Nc1nc2c(s1)CCCC2)c1ccc(C(=O)c2ccccc2)cc1	-2.5	-8	9	1	6%
O=C(Nc1ccc(F)cc1)Nc1nnc(Cc2ccccc2)s1	1.4	x	0	x	x
COc1cccc(-c2nnc3sc(C4CCCCC4)nn23)c1	7.3	4	63	-21	-5%
COc1ccc(CCN=Cc2ccccc2O)cc1OC	-0.8	x	-8	x	-2%
O=C(NCc1ccco1)C(=O)c1c[nH]c2ccccc12	1.7	2	-1	x	4%
O=C(COc1ccccc1)N1CCN(S(=O)(=O)c2cccc([N+](=O)[O-])c2)CC1	-0.4	2	-10	x	5%
COc1ccc(-c2cc(=O)oc3cc(OC(C)C(=O)NC(Cc4c[nH]c5ccc(O)cc45)C(=O)O)ccc23)cc1 (configuration not stated)	2.1	x	-3	x	x
Cc1cc(C)n(-c2ccc(Cl)c(C(=O)Nc3cc(C(F)(F)F)ccc3Cl)n2)n1	-2.4	-14	-6	8	0%
Cc1noc(NS(=O)(=O)c2ccc(NC(=O)COc3ccccc3)cc2)c1C	2.1	-4	12	-52	-6%
CCOC(=O)c1[nH]c(C)c(C(=O)Nc2ccccc2F)c1C	5.0	3	u	-22	x
CC1CCCCN1c1nnc(NC(=O)c2cc(-c3ccc(Br)cc3)on2)s1 (configuration not stated)	2.5	42*	5	-32	17%
Cc1ccnc(N2CCC(C(=O)NCc3ccc4c(c3)OCO4)CC2)n1	-0.4	-12	-5	-63	-2%

Sorted by molecular weight (lowest first): some entries from above
SMILES	RecA splice inh	Arbovirus anti	Mtb betalactam	YopH PTP inh	Mtb growth	others
CC(C)NC(=O)C1CCCN(S(C)(=O)=O)C1 (configuration not stated)	-1.7	10	-7	-63	-11%
COc1cccc(-c2nnc3sc(C4CCCCC4)nn23)c1	7.3	4	63	-21	-5%
C=CCn1c(SCC(=O)Nc2ccc3c(c2)OCO3)nnc1-c1cc(Br)ccc1O	1.0	-13	3	-16	-8%

Next part.
SMILES	RecA splice inh	Arbovirus anti	Mtb betalactam	YopH PTP inh	Mtb growth	others
O=C(NCc1ccco1)c1nc(-c2ccccc2)n(-c2ccccc2)n1	7.8	-10	1	-37	-3%
COc1ccc(CC(=O)Nc2cccc(C(=O)O)c2C)cc1	1.2	6	6	-40	-18%
COc1ccc(CCNC(=O)c2cccnc2SC)cc1	-2.8	3	-11	x	9%
CSc1ccc(/C=N\Nc2nncn2N)cc1	-2.0	x	100	x	x
O=C(NC1CCCC1)c1cc(S(=O)(=O)N2CCOCC2)c(Cl)cc1Cl	-2.0	-1	-9	x	-3%
CCN1CCCC1CNC(=O)c1ccc2c(=O)n(CCOC)c(=O)[nH]c2c1 (configuration not stated)	0.7	3	3	-35	-1%
COc1ccccc1NC(=O)CSc1nc2ccccc2c(=O)n1CC1CCCO1 (configuration not stated)	3.6	x	-9	x	x
Cc1ccc(S(=O)(=O)N(C)c2c(C)ccc(S(=O)(=O)NC(C)(C)C)c2C)cc1	9.2	6	-6	x	5%
COc1cc(CN2CCN(C(=O)CC(C)C)CC2)c([N+](=O)[O-])cc1OC	-1.0	x	-4	x	x
O=C(NC1CCCC1)C(c1ccccn1)N(C(=O)c1csnn1)C1CCCC1 (configuration not stated)	0.4	0	-1	-6	-4%
Nc1c(C(=O)NCc2ccco2)nnn1CC(=O)Nc1ccc2c(c1)OCO2	-8.8	2	-5	x	5%
Cc1cc(C(=O)OCC(=O)c2c(N)n(C)c(=O)n(C)c2=O)c(C)n1-c1ccccc1	-0.4	1	-4	-51	-5%
Nc1ccccc1S(=O)(=O)c1ccccc1N	-0.5	-5	1	-42	4%
COc1cccc(OC)c1C(=O)OCC(=O)NC(=O)NCc1ccccc1	6.8	8	1	x	-6%
c1ccc(-c2nc3ccccc3nc2-c2ccccn2)nc1	1.0	-4	x	-13	9%
O=C1c2ccccc2C(=O)N1Cc1nc2ccccc2c(=O)n1Cc1ccco1	4.9	x	-3	x	-3%
O=C(NCCN1CCN(c2ccccc2)CC1)C1CCCN(S(=O)(=O)c2cnc[nH]2)C1 (configuration not stated)	-1.1	0	-6	-8	-11%
O=C(COC(=O)[C@@H]1CC(O)CN1S(=O)(=O)c1ccc2c(c1)OCCO2)NCc1ccc(F)cc1 (some centres not stated)	2.1	7	-4	x	-4%
CCN(CC)S(=O)(=O)N1CCC(C(=O)N2CCC3(CC2)OCCO3)CC1	2.7	-2	1	x	-1%
FC(F)(F)c1cc(-c2cccs2)nc(NCc2ccco2)n1	-1.1	15	6	-1	-9%
C=CCn1c(N2CCN(c3ccc(OC)cc3)CC2)nc2c1c(=O)n(C)c(=O)n2C	9.5	10	1	x	6%
Cc1cccc(NC(=O)NC2CCCCCCC2)c1C	0.0	x	-14	x	x
COc1ccc(N2CCN(C(=O)CSc3nc4ccccc4c(=O)[nH]3)CC2)cc1	-1.5	x	6	x	x
Cc1ccc(NS(=O)(=O)c2ccc(C(=O)N3CCC3)cc2)cc1	1.3	x	2	x	x
O=C(NCC(=O)N1CCOCC1)c1ccc(Cl)cc1	-1.1	x	-5	x	x
CCN(CCCNC(=O)CN1C(=O)COc2ccccc21)c1ccccc1	x	10	13	-4	0%	Arbovirus anti repeat=0
O=C(O)C1CCCCC1C(=O)NCc1ccccc1 (configuration not stated)	-0.2	-3	0	-17	-4%
N#CCCN1CCN(S(=O)(=O)c2ccc(S(=O)(=O)NCc3ccccc3)cc2)CC1	-0.9	2	-7	-26	1%	Arbovirus anti repeat=2
Cc1ccc(/C(CSc2nccn2-c2ncc(C(F)(F)F)cc2Cl)=N\O)cc1	-3.1	12	5	-20	-3%
Cc1cc(Cl)c2ccc3ccccc3c2n1	1.8	-3	-1	x	-5%
CC1(C)N=C(N)NC(Nc2ccccc2)=N1	x	13	-6	-2	-4%
COc1ccc(Cl)cc1NC(=O)C1CC(=O)N(C2CCCCC2)C1 (configuration not stated)	-1.0	x	4	x	x
S=c1nc(C2COc3ccccc3O2)[nH][nH]1 (configuration not stated)	-0.6	10	-5	x	-6%
CCNc1nc2c(c(=O)[nH]c(=O)n2C)n1CC(C)C	-0.2	9	-6	-1	-5%	Arbovirus anti repeat=0
O=C(CSc1ccc(-c2cccnc2)nn1)Nc1ccccc1F	-1.5	x	9	x	x
COC(=O)CNC(=O)CNC(=O)c1nn(-c2ccc(OC)c(OC)c2)c(=O)c2ccccc12	-0.3	x	0	x	x

Some of the compounds tested. The share of hits here may be higher or lower than overall.
